From PubChem BioAssay
TRPML1 blocker = qHTS for Inhibitors of the Human Mucolipin Transient Receptor Potential 1 (TRPML1); Mucolipin-1 (Homo sapiens), Q9GZU1; TRPML1-inducible cells, Ca2+ dye fluorescence, FDSS; stronger effect = lower value; inhibition of EC80 agonist-evoked calcium signal; activity change, negative = inhibition, % (concentration not given with the values); 0.02% of 390,000 active; AID 624415, 2012; in the data active means activity change below about -50%; inconclusive means about -30% to -50%; inactive means above about -30%;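 further: stimulus is agonist 54-4 at its EC80 concentration; on the % scale 0 is the no-effect control and ±100 the full control effect; compound concentration not given in the record; the text of the record puts the active cut at -80%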
Target sequence (Q9GZU1 whole entry, looked up): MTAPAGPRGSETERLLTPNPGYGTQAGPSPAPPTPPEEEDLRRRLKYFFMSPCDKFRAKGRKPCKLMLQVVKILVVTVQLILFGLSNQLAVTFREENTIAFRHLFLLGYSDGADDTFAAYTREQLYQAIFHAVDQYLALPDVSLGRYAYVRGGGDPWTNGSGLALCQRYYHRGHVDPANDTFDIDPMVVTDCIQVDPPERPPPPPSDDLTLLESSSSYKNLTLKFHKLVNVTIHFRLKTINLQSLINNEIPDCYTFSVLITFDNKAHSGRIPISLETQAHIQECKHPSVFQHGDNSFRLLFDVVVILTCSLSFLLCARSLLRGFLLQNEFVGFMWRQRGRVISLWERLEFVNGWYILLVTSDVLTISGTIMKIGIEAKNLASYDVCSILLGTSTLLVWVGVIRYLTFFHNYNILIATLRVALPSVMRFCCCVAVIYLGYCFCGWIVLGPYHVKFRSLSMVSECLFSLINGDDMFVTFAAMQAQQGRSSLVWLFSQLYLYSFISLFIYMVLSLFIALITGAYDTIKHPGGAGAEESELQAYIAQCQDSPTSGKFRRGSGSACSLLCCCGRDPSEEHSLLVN
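TRPML1-DL cells, Tet-induced overnight (~16 h, 37 °C) at 1,500 cells/well, were loaded with Ca8 no-wash dye plus quencher for 45-90 min at room temperature. Compounds were pinned during FDSS kinetic reading; agonist 54-4 at EC80 (4 uM final) then added.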
TRPML1 agonist = qHTS for Agonists of the Human Mucolipin Transient Receptor Potential 1 (TRPML1). 0.12% of 410,000 active. TRPML1-expressing cells, Ca2+ dye fluorescence, FDSS; host cell line not named in the record; reference of the full effect not given here. activation, % (concentration not given with the values). Mucolipin-1 (Homo sapiens), Q9GZU1; in the data active = activation above about 50%; inconclusive = about 30% to 50%; inactive = below about 30%; further: 0% is about no effect; the text of the record puts the active cut at 80%
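Cells: TRPML1-DL, 1X Tet inducer, ~16 h at 37 degrees C/5% CO2. Dye: ABD Ca8 no-wash + quencher, 45-90 min RT. Read: 10 s baseline, compound add, 110 s agonist phase; 54-4 EC80 (4uM final), 110 s antagonist phase.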
D2 agonist = Beta-Arrestin HTS for Positive Allosteric Modulators of the Human D2 Dopamine Receptor: Agonists | D(2) dopamine receptor (Homo sapiens), P14416 | DiscoveRx PathHunter D2 beta-arrestin, luminescence, 90 min; 100% = 57 uM dopamine signal | activation, % (test concentration not listed) | 0.084% of 360,000 active | AID 624465, 2012; in the data active = activation above about 40%; inconclusive = about 15% to 40%; inactive = below about 15%; further: compound concentration not given in the record; the text of the record calls up to 30% inactive
Target sequence (P14416 whole entry, looked up): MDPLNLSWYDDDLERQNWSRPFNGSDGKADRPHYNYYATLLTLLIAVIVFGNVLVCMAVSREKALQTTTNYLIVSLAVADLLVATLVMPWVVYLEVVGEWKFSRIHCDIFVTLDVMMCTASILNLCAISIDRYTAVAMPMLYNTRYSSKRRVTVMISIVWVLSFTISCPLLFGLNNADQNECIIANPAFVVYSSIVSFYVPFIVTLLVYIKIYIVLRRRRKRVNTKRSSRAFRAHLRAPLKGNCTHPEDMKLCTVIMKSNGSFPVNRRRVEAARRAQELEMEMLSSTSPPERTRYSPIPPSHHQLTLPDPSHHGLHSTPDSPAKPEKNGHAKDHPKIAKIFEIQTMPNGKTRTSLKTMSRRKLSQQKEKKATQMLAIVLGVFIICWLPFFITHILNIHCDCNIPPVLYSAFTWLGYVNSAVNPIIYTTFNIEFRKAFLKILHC
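Agonist mode: compounds alone added to overnight-plated D2 PathHunter cells for 90 min at 37 C, with 57 uM final dopamine (EC100) defining full response. Beta-arrestin recruitment detected by chemiluminescent reagent, read after 1 h at ambient temperature.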
PINK1 expr mod = A Quantitative High throughput Screen to Identify Chemical Modulators of PINK1 Expression; AID 624263, 2012; Potency, µM (doses to about 76.6 µM), for inactives: top-dose activation (PINK1 increase), hits mostly activators; 0.2% of 410,000 active; PINK1 immunofluorescence, high-content cytometry, 24 h; active = well fitted activation curve with a large enough effect; inconclusive = small, poorly fitted or top-dose-only effect; inactive = flat fitted curve, though single readings scatter; cell line not stated here;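 further: potency means the concentration at half of the fitted maximal effect; % of control where 0% means no effect; nearly all actives have a fitted effect of over 65% in size; a mitochondrial uncoupler was the plate control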
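Compound titrations (5 concentrations, 24 h) on a stable cell line; DMSO and CCCP controls. Endpoint: fixed-cell PINK1 immunofluorescence with mitochondrial, cell and nuclear markers, scanned by microplate cytometer.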
CtBP-E1A blk = qHTS Assay for Inhibitors of the CtBP/E1A Interaction; AID 651724, 2012; AlphaScreen GST-E1A/His-CtBP binding, 1536-well; stronger effect = lower value; control for the full effect not named in the record; CtBP / adenovirus E1A interaction (AlphaScreen); 0.49% of 340,000 active; activity change, % (test concentration not listed); in the data active means activity change below about -65%; inconclusive means about -30% to -65%; inactive means above about -30%; further: on the % scale 0 is the no-effect control and ±100 the full control effect; compound concentration not given in the record
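Steps: dispense buffer (Tris pH 8.0, NaCl 300 mM, TCEP 1 mM, BSA, Tween 20); add 5X protein mix (GST-E1A, His-CtBP, 125 nM each); pin 23 nL compound; 2 h at 37 °C, dark; add 5X beads (50 ug/mL); 1 h; read.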
Six1-Eya2 inh = qHTS Assay for Inhibitors of the Six1/Eya2 Interaction; Homeobox protein SIX1 (Homo sapiens) + Protein phosphatase EYA2 (Homo sapiens), …; AlphaScreen GST-Six1/His-Eya2 binding, biochemical; stronger effect = lower value; control for the full effect not named in the record; activity change, % (test concentration not listed); 0.56% of 360,000 active; in the data active = activity change below about -65%; inconclusive = about -30% to -65%; inactive = above about -30%; further: on the % scale 0 is the no-effect control and ±100 the full control effect; compound concentration not given in the record
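Homogeneous AlphaScreen proximity assay pairing GST-Six1 with His-tagged Eya2 (added as 5X mix: 250 nM and 500 nM) in 50 mM Tris pH 8.0, 300 mM NaCl, 1 mM TCEP. Glutathione donor and nickel acceptor beads; 1 h, 37 °C, dark.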
Starred values were filed as active, the others as inactive; ? = inconclusive; . = no result given; & = joins results of further samples; [ ] = another dose, or the depositor's remark. Rows are unselected. About 1% of those tested had a hit in this group.

SMILES | TRPML1 blocker | TRPML1 agonist | D2 agonist | PINK1 expr mod | CtBP-E1A blk | Six1-Eya2 inh
CCc1cccc(C)c1NC(=O)CCCn1c(C)c2cnn(-c3ccccc3)c(=O)c2c1C | 0.3 | -0.3 | . | 0.7% | . | .
CN(CC#CC(O)(c1ccccc1)c1ccccc1)C(C)(C)C | -5.2 | 0.7 | -1.4 | 1.4% | -10.9 | 2.9
COC(=O)C1=C(C)NC(=O)NC1c1ccc2c(c1)OCO2 (stereo not given) | . | . | -2.2 | -0.7% | . | -1.9
NC(=O)c1ccc(NC(=O)COC(=O)c2c[nH]c3ccccc23)cc1 | -20.7 | 0.1 | 0.3 | 4.5% | -23.1 | 4.4
O=C(CCNS(=O)(=O)c1ccccc1)OCC(=O)c1ccc[nH]1 | 1.4 | -0.5 | -0.1 | 1.5% | -17.7 | -1.8
NNC(=O)c1sccc1OCc1ccc(F)cc1 | 14.3 | -0.3 | -3.0 | 0.9% | 7.4 | 2.2
Cc1ccc(S(=O)(=O)N2CCC(C(=O)O)CC2)cc1 | -12.7 | -0.1 | -4.7 | 5.9% | -8.3 | -0.6
COc1cc2ncnc(N[C@H](C)c3ccccc3)c2cc1OC | 36.4 | 3.8 | -8.3 | 2.0% | . | 25.3
CCOC(=O)COn1c(-c2cccc(Cl)c2)nc2ccc([N+](=O)[O-])cc21 | 26.2 | 0.3 | 1.7 | 0.8% | 13.3 | 3.0
Cc1ccc(NC(=O)CN2c3cccc4cccc(c34)S2(=O)=O)cc1 | 38.5 | 2.5 | 2.4 | 4.5% | 18.7 | 6.2
O=C(Nc1ccc2c(c1)OCCO2)c1ccc(Br)c(S(=O)(=O)N2CCOCC2)c1 | 11.2 | -0.4 | -1.0 | 1.3% | ? | -29.8
Cc1ncccc1C(=O)N1CCCC(C(=O)c2ccc3c4c(cccc24)CC3)C1 (stereo not given) | -12.4 | -0.7 | -1.5 | 3.3% | 2.7 | 3.8
N#Cc1cc2c([nH]c1=S)CCCC2 | -0.5 | 0.1 | -4.8 | 6.1% | 2.4 | 2.1
CCCCN(CC)CCCNC(=O)c1cn(C)c(=O)c2c1c1ccccc1n2C | -13.3&-24.6 | 3.3&1.1 | 3.0 | 0.8%&0.6% | . | 3.5
Cc1nn(-c2ccccc2)c2nc(C(F)F)cc(C(F)F)c12 | 2.5 | 2.9 | 5.3 | 8.9% | 36.9 | 60.6
C[C@H]1COc2cc(N(C)CCO)ccc2S(=O)(=O)N1 | . | -0.5 | . | 1.7% | 7.0 | 0.9
COC(=O)c1ccc(NC(=O)c2cc(=O)c3ccc(C)cc3o2)cc1 | 13.8 | 0.8 | . | 2.4% | . | .
Cc1c(NC(=O)c2cc(-c3cccc(O)c3)on2)c(=O)n(-c2ccccc2)n1C | 1.2 | 1.8 | . | 6.2% | . | .
CN(Cc1cccc2cnccc12)C(=O)c1cc(COc2ccc(F)cc2Cl)on1 | 9.1 | -0.6 | -0.8 | -0.6% | -10.9 | -5.0
Cc1ccc(S(=O)(=O)NC2CC2)cc1 | -2.6 | -0.7 | 1.4 | -0.2% | . | 3.3
Cc1ccc(-n2c(C)nc3ncnc(-c4ccccc4)c32)cc1 | -18.7 | 0.7 | -2.4 | -1.4% | -15.5 | -3.7
Cn1nnc2cc(C(=O)N3CCC(c4ccccc4)C3)ccc21 (stereo not given) | 9.3 | -0.7 | -2.3 | -1.0% | 3.9 | -3.1
Cc1ccc(-c2cn3cccnc3n2)cc1NC(=O)C(C)(C)Oc1ccc(Cl)cc1 | 7.5 | 1.3 | . | 1.0% | . | .
CCCn1c(SCC(=O)N2c3ccccc3CC2C)nnc1-c1ccco1 (stereo not given) | 3.3 | 0.3 | -0.9 | -1.2% | -0.4 | -0.8
Cc1cc(N2CCC(C)CC2)nc2ccc(NC(=O)/C=C/c3cccc(Cl)c3)cc12 | -10.9 | 0.2 | . | 0.5% | . | .

Part of the list above, showing only PINK1 expr mod, CtBP-E1A blk and D2 agonist:
Structure	PINK1 expr mod	CtBP-E1A blk	D2 agonist
C[C@H]1COc2cc(N(C)CCO)ccc2S(=O)(=O)N1	1.7%	7.0	.
COC(=O)c1ccc(NC(=O)c2cc(=O)c3ccc(C)cc3o2)cc1	2.4%	.	.
Cc1c(NC(=O)c2cc(-c3cccc(O)c3)on2)c(=O)n(-c2ccccc2)n1C	6.2%	.	.
CN(Cc1cccc2cnccc12)C(=O)c1cc(COc2ccc(F)cc2Cl)on1	-0.6%	-10.9	-0.8
Cc1ccc(S(=O)(=O)NC2CC2)cc1	-0.2%	.	1.4

Going on with the list:
SMILES | TRPML1 blocker | TRPML1 agonist | D2 agonist | PINK1 expr mod | CtBP-E1A blk | Six1-Eya2 inh
CCc1ccc(NC(=O)c2cc(C(C)=O)n3ccccc23)cc1 | -8.5 | -0.2 | . | 6.5% | . | .
Cc1c(NC(=S)N/N=C/c2ccc(N(C)C)cc2)c(=O)n(-c2ccccc2)n1C | 17.4 | 1.0 | -7.3 | -0.3% | -0.9 | -9.8
CCc1ccc(C(=O)Nn2cnc3ccccc3c2=O)cc1 | -26.9 | 1.4 | -1.9 | -0.1% | -0.7 | 4.5
CC(=O)NN1C(=O)/C(=C\c2ccccc2)SC1=S | -2.8 | 0.3 | -5.6 | 2.6% | . | -7.7
CN(C(=O)CSc1nnc(C(F)(F)F)n1C)c1c(N)n(Cc2ccccc2)c(=O)[nH]c1=O | 1.7 | 0.3 | -1.8 | 1.9% | -2.1 | 7.0
O=C(O)c1ccc(CNc2ccccc2C(=O)O)cc1 | -1.2 | -0.2 | -3.5 | -1.6% | -0.6 | -9.3
C[C@H](NC(=O)OC(C)(C)C)C(=O)N/N=C/c1ccc2nccnc2c1 | 0.8 | -0.1 | -3.0 | 1.8% | . | -23.3
CCOc1ccccc1C(=O)NCc1ccc2c(c1)CCN2C(=O)c1ccc(F)cc1 | -3.6 | 0.4 | . | 0.5% | . | .
COc1ccc(-n2ncc(C(=O)NCCCN3CCCCC3)c2C2CCN(C(=O)OC(C)(C)C)CC2)cc1 | 7.3 | -0.3 | . | 0.1% | . | .
CCOc1ccc(NC(=O)CC2C(=O)N(c3ccccc3)C(=O)N2Cc2ccc3c(c2)OCO3)cc1 (stereo not given) | 6.0 | 1.1 | . | -0.2% | . | .
O=C(CC(c1ccco1)S(=O)(=O)c1ccccc1)c1ccccc1 (stereo not given) | -8.1 | -1.5 | -2.2 | 5.1% | -7.6 | 6.1
CCCc1nc(SC)ncc1C(=O)N1CCN(c2ccc(Cl)cc2)CC1 | -1.7 | 2.2 | . | 1.5% | . | .
CC1(C(=O)NS(=O)(=O)c2ccc(Br)cc2)CCN1C(=O)CCC1CCCC1 (stereo not given) | 1.5 | -0.1 | -3.8 | -0.1% | 0.6 | 7.0
CCOc1ccc(N(CC(=O)Nc2ccccc2C(=O)N2CCOCC2)S(=O)(=O)c2ccc(F)cc2)cc1 | 34.4 | 1.2 | 0.6 | 3.1% | -2.9 | -0.2
O=C(Nc1ccc2oc(-c3ccccc3)nc2c1)c1cccs1 | -10.1 | 0.1 | -3.9 | 10.1% | 2.6 | -2.6
COc1ccc(-c2csc(NC(=O)c3ccccc3OC)c2C(=O)O)cc1OC | -19.9 | 0.5 | -3.2 | 1.1% | -25.7 | -25.6
CN(C)CCNC(=O)Cc1ccc([N+](=O)[O-])cc1 | 3.6 | 0.3 | -1.9 | -0.9% | -1.4 | -3.0
CCOc1cc(/C=C2/C(=N)N3C(=NC2=O)SN=C3S(=O)(=O)C(C)C)ccc1OC(=O)c1ccco1 | 0.8 | -0.6 | -1.6 | -0.3% | -21.1 | -6.0
COc1ccc(NS(=O)(=O)c2ccc(Cl)c(NC(=O)c3ccccc3F)c2)cc1 | -3.5 | 0.0 | 3.3 | 10.8% | 0.9 | -7.0
Nc1nc(SCC(=O)NCc2ccccc2)n[nH]1 | 7.5 | -0.9 | -3.1 | 1.9% | 2.1 | 1.3
Cc1ccc(-c2cc(C(F)F)nc(NCc3cccnc3)n2)cc1 | 6.7 | 1.4 | -2.1 | 1.1% | 0.3 | 6.0
Cc1cccc(C)c1NC1=NCCCCC1 | -4.4 | -0.9 | -3.0 | 1.4% | -1.5 | 0.9
COc1ccc(CNC(=O)c2ccc(-c3nc(CSc4ccc(C)cc4)c(C)o3)cc2)cc1OC | 13.2 | 0.8 | . | 4.1% | . | .
CC(Nc1cc(N2CCCC2)ccc1[N+](=O)[O-])c1ccccc1 (stereo not given) | -18.1 | 2.1 | -1.9 | 8.0% | -18.6 | -18.9
CCc1c(O)nc(SCC(=O)Nc2ccc(Cl)cc2)n(-c2ccccc2)c1=O | 6.2 | -0.7 | -1.0 | -0.4% | 1.1 | -1.7
SMILES | TRPML1 blocker | TRPML1 agonist | D2 agonist | PINK1 expr mod | CtBP-E1A blk | Six1-Eya2 inh
COc1cccc(COC(=O)C2CCN(S(=O)(=O)c3ccc(C)cc3C)CC2)c1OC | -0.6 | 0.1 | -1.5 | 1.1% | 18.7 | -0.9
COc1ccccc1NCC(=O)NNC(C)C(=O)Nc1cccc(Cl)c1 (stereo not given) | 8.4 | 0.6 | -2.3 | 1.0% | -10.0 | 1.8
CC(C)[C@H](Nc1nc(-c2ccccc2)nc2c1oc1ccccc12)C(=O)O | -2.3 | -0.3 | -1.1 | -0.9% | 0.5 | 1.9
COC(=O)[C@H](CCSC)NC(=O)NCc1ccccn1 | -11.9 | 2.4 | -1.6 | -3.1%[38.3 µM] | 2.2 | -2.3
COc1ccc(NC(=O)CN2CCN(Cc3ccccc3)CC2)cc1 | -13.2 | 0.1 | -4.2 | -2.0% | -1.7 | -4.7
COc1ccccc1CNC(=O)Cn1nnnc1CN(C)C(C)C | . | . | 0.4 | 0.3% | . | 16.8
C=CCN(c1nc(C)cc(OC)n1)S(=O)(=O)c1ccccc1 | . | . | -2.7 | 1.3% | . | 8.4
COc1ccc(S(=O)(=O)NC2CC(C)(C)NC(C)(C)C2)cc1C(C)C | -2.7 | 1.2 | -3.3 | -0.9% | -5.3 | -18.8
O=C(COC(=O)c1ccc(O)cc1)Nc1ccccc1-c1ccccc1 | 29.3 | 2.7 | -0.8 | ? | 0.7 | -10.9
COc1cc2oc(=O)cc(CN3CCCCCCC3)c2cc1Cl | . | 0.0 | -2.7 | 1.4% | -1.5 | -7.3
